# Screening results: PubChem, Broad Institute
# Beta apoptosis: beta cell apoptosis inhibition; INS-1E cytokine-induced death, ATP luminescence, 48 h; percent of positive-control rescue, neutral wells zero; protection from apoptosis, % (no concentration beside the values); 0.8% of 300,000 active;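 active = all replicates at 75% or more, or half of them and the mean; inconclusive = half reach 75% but not the mean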;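 also: 0% = cytokine-treated negative control wells and 100% = positive control rescue; higher means more ATP so stronger rescue from cytokine killing; wells of about 40 µL received 100 nL stock; the first replicate is given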
# FGF22 binding: FGF22 (human) thermal shift binding. recombinant FGF22 thermal shift, SYPRO orange fluorescence; percent of sucrose octasulfate shift, DMSO zero. calls only at 9.99 µM. 1.5% of 340,000 active. Q9HCT0;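 active = melting point raised past a set limit in the mean and every replicate; inconclusive = no clear call; three in four hits are not shown here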
# Target sequence (Q9HCT0 whole entry, looked up): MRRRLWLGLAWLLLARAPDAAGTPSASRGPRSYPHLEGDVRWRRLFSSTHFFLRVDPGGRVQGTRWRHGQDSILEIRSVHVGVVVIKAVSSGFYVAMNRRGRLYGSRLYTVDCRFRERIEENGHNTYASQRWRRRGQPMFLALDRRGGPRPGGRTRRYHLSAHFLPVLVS
# MLL AF4-AF9 inh: inhibitors of human MLL-AF4/AF9 interaction; P42568; AlphaScreen, biotin-AF4 peptide binding to FLAG-AF9; 0.47% of 350,000 active; inhibition, % at 10 µM;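 active = every replicate reaching a set inhibition limit, whatever the replicate mean, cut at about 25% in these data; inconclusive = mean inhibition reaches that limit but some replicates miss it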;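 also: 0% = plate neutral control median and 100% = total signal loss; the record names both 10 and 1 µM as test concentration; the first replicate is given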
# Target sequence (P42568 whole entry, looked up): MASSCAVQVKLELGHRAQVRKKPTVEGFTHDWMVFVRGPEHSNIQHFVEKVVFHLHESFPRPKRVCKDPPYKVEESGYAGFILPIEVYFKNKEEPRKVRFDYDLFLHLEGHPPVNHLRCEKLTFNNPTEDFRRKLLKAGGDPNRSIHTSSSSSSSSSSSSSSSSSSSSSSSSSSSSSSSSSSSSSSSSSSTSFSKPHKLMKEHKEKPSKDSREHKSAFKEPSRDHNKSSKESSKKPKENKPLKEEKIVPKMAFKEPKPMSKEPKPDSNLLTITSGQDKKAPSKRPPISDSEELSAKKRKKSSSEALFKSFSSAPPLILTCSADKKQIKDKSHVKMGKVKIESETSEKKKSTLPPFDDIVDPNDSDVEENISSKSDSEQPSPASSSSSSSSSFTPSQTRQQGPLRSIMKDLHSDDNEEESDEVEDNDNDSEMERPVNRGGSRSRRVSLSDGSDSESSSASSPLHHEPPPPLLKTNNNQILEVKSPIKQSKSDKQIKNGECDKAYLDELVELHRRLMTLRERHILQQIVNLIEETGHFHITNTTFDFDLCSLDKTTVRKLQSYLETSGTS
# T cruzi repl: blocks replication of Trypanosoma cruzi | T. cruzi beta-gal in NIH3T3, luminescence, 90 h | inhibition, % (no concentration beside the values) | 1.4% of 300,000 active;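 active = mean inhibition across valid replicates above about 55%, limit read from the data; inconclusive = mean below that limit but half or more replicates reach it; inactive = mean below it, under half of replicates reach it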;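 also: signal also drops with host cell toxicity which is not excluded here; 0% = plate median of DMSO wells and 100% = zero luminescence signal; higher percent means less beta-gal luminescence so fewer parasites; stock transfer was 50 nL into about 50 µL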
# ALR inh: human ALR oxidase inhibition via reduced H2O2; P55789; purified ALR, DTT oxidation, H2O2 HRP-luminol luminescence; inhibition, % (concentration not given with the values); 3.8% of 290,000 active;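 active = mean and each replicate at 75% or more; inconclusive = only one of the two met; inactive = neither met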;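 also: stock transfer was 7.5 nL into about 7.5 µL; 0% = neutral wells and 100% = wells with inactivated enzyme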
# Target sequence (P55789 whole entry, looked up): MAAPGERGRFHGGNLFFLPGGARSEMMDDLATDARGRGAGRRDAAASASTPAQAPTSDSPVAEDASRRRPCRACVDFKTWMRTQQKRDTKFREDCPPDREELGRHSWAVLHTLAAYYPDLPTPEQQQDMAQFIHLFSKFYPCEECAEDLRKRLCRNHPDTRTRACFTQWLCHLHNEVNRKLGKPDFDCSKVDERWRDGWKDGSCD
# RanGTP-Imp inh: disruptors of Ran-importin-beta complex formation – biochemical, FRET, CFP-Ran, YFP-importin-beta, homogeneous, primary screen; cell-free CFP-Ran/YFP-importin-beta FRET ratio; AID 2216; 1.1% of 300,000 active; inhibition, % (no concentration beside the values);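 active = most replicates above 15%; inconclusive = exactly half above 15%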;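 also: 0% = DMSO wells and 100% = Ran loaded with GDP instead of GTP; wells of about 40 µL received 100 nL stock; the first replicate is given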
# Ecoli rRNA inh: inhibitors of bacterial rRNA selective over humanized ribosomes; E. coli WT GFP vs humanized-ribosome RFP mutants, fluorescence, 24 h; active compounds read low; DMSO median 0, no signal -100; GFP signal change (wild-type ribosome), % (test concentration not listed); 1.6% of 350,000 active; AID 720706;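 active = significant combined selectivity score with lowered wild-type GFP, culture density cut under 30%, mutant RFP and density less affected; inactive = any of these conditions unmet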; also: one replicate is shown; some compounds called inactive have numbers as strong as hits
# Calb FLC: C. albicans growth modulation with fluconazole; 0.57% of 300,000 active; growth inhibition, % (concentration not given with the values); AID 1979; C. albicans CaCi-2 (fluconazole-resistant clinical isolate) + fluconazole, Alamar Blue growth, 48 h;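 active = most replicates above 75%; inconclusive = exactly half above 75%; inactive = most below 75%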;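 also: all wells also contain fluconazole at 8 µg/ml as a sub-toxic cotreatment; 0% = median of DMSO wells and 100% = median of geldanamycin control wells; wells of about 8 µL received 7.5 nL stock; the first replicate is given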
# Ecoli rRNA inh OD600: further read-out of Ecoli rRNA inh, marked with its call; OD600 change, %; measured here: OD600 growth;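 optical density of the mix in the first replicate; 0 = DMSO median and -100 = no signal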
# Ecoli rRNA inh RFP: also measured in Ecoli rRNA inh; calls as there; RFP signal change, %; measured here: RFP humanized mutant strains;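 first replicate; 0 = DMSO median and -100 = no signal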
# The depositor's hits bear a star; i = inactive; u = inconclusive; x = no result given. Not all compounds are listed; rates above refer to the full screens.
SMILES,Beta apoptosis,FGF22 binding,MLL AF4-AF9 inh,T cruzi repl,ALR inh,RanGTP-Imp inh,Ecoli rRNA inh,Ecoli rRNA inh OD600,Ecoli rRNA inh RFP,Calb FLC
Cc1cccc2c(=O)cc(C)n(CC(=O)N3CCOCC3)c12,-4,x,x,5,-4,1.3,x,x,x,-4
Cc1ccc(C2=C(CC(=O)O)C(=O)CC2)cc1,x,x,x,5,2,4.5,x,x,x,-2
COc1ccc(NC(=O)Nc2ccc(C(C)C)cc2)cc1,2,i,-2.0,-12,-8,1.7,12,17,-1.9,-15
CCn1c(=O)n(CC)c2cc(S(=O)(=O)Nc3c(C)cccc3C)ccc21,-8,i,u,22,x,0.8,-18,-34,-5.9,0
CNC(=S)N/N=C/c1cccc(OCc2ccccc2F)c1,x,i,2.2,4,-2,0.0,-21,-20,-5.0,-15
CCCn1nnnc1NCc1cccc(OC)c1OC,-5,i,-5.3,-3,-2,-1.4,7,-5,-7.1,10
CCOc1ccc(-c2cc(C(=O)O)c3ccccc3n2)cc1,9,x,x,-13,5,6.9,x,x,x,-10
CC1CCCN(S(=O)(=O)c2ccc(NC(=O)[C@@H]3CCCN3C(=O)c3cccs3)cc2)C1 (stereo partly drawn),1,i,-13,x,1,x,-2,-3,5.9,x
CCCn1c(SCC(=O)c2cc(OC)ccc2OC)nnc1C(C)C,-1,x,x,-13,37,-3.7,x,x,x,-1
CN(C)S(=O)(=O)c1ccc(Cl)c(C(=O)NCc2ccco2)c1,-2,i,5.5,-8,14,3.9,6,5,-5.2,u
CCc1ccccc1N(C(C)=O)c1nc(CN=C=S)cs1,5,i,-1.4,-15,44,u,4,-2,-1.4,6
O=C(CSc1nc2ccccc2s1)NC1CCS(=O)(=O)C1 (stereo not drawn),6,x,x,4,90*,-1.0,x,x,x,-2
CCc1ccc(CNC(=O)C2Cc3cc(S(=O)(=O)N4CCCC4)ccc3N2C(C)=O)cc1 (stereo not drawn),-2,i,-0.7,16,0,8.8,11,6,0.5,21
O=C1CCCN1CCCNC(=S)Nc1ccc(Cl)cc1Cl,1,i,-0.2,-15,7,0.2,2,1,-1.1,15
CN1CCN(Cc2nc3cc(NC(=O)COc4ccc([N+](=O)[O-])cc4)ccc3n2C)CC1,x,i,-0.1,-9,64,1.4,-1,2,-1.7,-6
O=[N+]([O-])c1ccc2c(c1)Nc1nc3ccccc3nc1N2,4,x,-4.1,-17,x,3.2,47,28,8.6,5
O=P(CCO)(c1ccccc1)c1ccccc1,-12,i,-1.0,-21,-2,1.2,9,11,0.0,2
CCS(=O)(=O)N1CCC(C(=O)N2CCOCC2)CC1,0,i,4.3,2,-14,2.8,7,4,2.3,11
Nc1ncnc2c1ncn2[C@@H]1O[C@H](CNCc2ccc(OCC(=O)Nc3nccs3)cc2)[C@@H](O)[C@H]1O,-4,i,0.1,x,x,x,6,3,-0.9,x
COc1ccc2c3n(nc2c1)CCN=C3c1ccc(C)cc1,-13,i,10,x,x,x,-32,-43,-18,x
COc1cc(NC(=O)c2noc(C)c2[N+](=O)[O-])c(OC)cc1Cl,-5,i,-0.2,30,-4,4.3,-3,-15,3.0,3
Cc1ccc(NC(=O)CCNS(=O)(=O)c2ccccc2F)cc1S(=O)(=O)N1CCOCC1,1,i,7.8,-5,-3,4.4,0,4,-1.7,9
COc1ccc(-c2nnc(SCC(=O)N3CCCC3)o2)cc1OC,3,x,x,-6,-4,-0.2,x,x,x,6
CC(C)C(=O)Nc1ccnc(-c2cccnc2)n1,1,i,3.6,0,-35,-2.8,8,-1,-11,3
Cc1cc(=O)[nH]c(SCn2nnc3ccccc3c2=O)n1,-5,x,x,2,-6,-1.1,x,x,x,-5
COc1cc2nc(CN(C)Cc3nc4ccccc4c(=O)[nH]3)[nH]c(=O)c2cc1OC,3,x,x,-8,9,4.1,x,x,x,13
Cc1cc2ccccc2c(=O)n1CC(=O)NCC(=O)N1CCCC1,1,x,x,-9,-11,0.7,x,x,x,-5
Cc1ccc2c(c1)N(CC(=O)N(Cc1ccccn1)Cc1ccco1)C(=O)C(C(C)C)O2 (stereo not drawn),3,x,x,10,1,u,x,x,x,-9
COC(=O)C1C(c2ccccc2)C(C(=O)OCc2ccco2)C1c1ccccc1 (stereo not drawn),x,i,7.2,7,x,-4.9,-1,6,-2.5,-4
O=C(NC1CCCCCC1)c1cccc(N2CCCC2=O)c1,4,x,x,-2,-5,-2.2,x,x,x,3
Cc1ccc(N(C(=O)CNC(=O)c2ccco2)C(C(=O)NC2CCCC2)c2cccnc2)cc1 (stereo not drawn),0,i,-16,0,-3,-4.2,-1,17,-1.9,2
O=C(OCc1nnc(-c2ccccc2)o1)C1CCN(S(=O)(=O)c2cccs2)CC1,0,x,x,-7,-3,-3.8,x,x,x,x
O=C(CN1CCC(O)(c2cccc(F)c2)CC1)NCCc1c[nH]c2ccccc12,-3,i,10.0,19,-4,0.4,-5,-9,7.1,7
O=C(c1ccco1)N1CCN=C1SCc1c(F)cccc1Cl,-9,x,x,6,9,3.6,x,x,x,2
Cc1ccccc1C(=O)Nc1ccnn1C1CCN(C2CCSCC2)CC1,6,i,3.1,3,-4,7.2,-28,-29,-1.7,-5
CC1=C(C(=O)OCc2ccccc2)C(c2cccc([N+](=O)[O-])c2)NC(=O)N1CCCCCC(=O)O (stereo not drawn),-4,i,-21,15,16,-1.3,4,4,-4.4,4
CS(=O)(=O)N(Cc1ccccc1)c1ccc(C(=O)NCC2CCCO2)cc1 (stereo not drawn),5,x,x,-14,-1,-3.4,x,x,x,-3
CCCC1(C(=O)OCC)NC(c2ccc(N(C)C)cc2)C2C(=O)N(c3ccc(OCC)cc3)C(=O)C21 (stereo not drawn),24,x,x,-6,x,2.1,x,x,x,-20
O=c1cccc(-c2ccccc2)[nH]1,5,x,x,-4,x,-2.3,x,x,x,-4
Oc1ccc(C=Nc2cccc3ncccc23)c(O)c1,-4,x,x,0,x,-0.2,x,x,x,19
CCOC(=O)c1cc2n(c1C)-c1ccccc1C2=O,-1,x,x,4,-3,0.9,11,4,2.0,-14
CCOc1ncccc1C(=O)OCC(=O)N1c2ccccc2CC1C (stereo not drawn),-2,i,1.8,x,2,x,-6,-16,1.6,x
O=C(O)c1cc(-c2ccc(O)cc2)nc2ccccc12,1,x,x,-2,16,-1.4,x,x,x,12
CCCn1c2c(c(O)c(C(=O)Nc3ncccc3C)c1=O)CCCC2,-2,x,x,15,25,0.9,x,x,x,8
Cc1ccc2cc(CCNC(=O)CC(C)C)c(=O)[nH]c2c1,0,i,-4.9,-6,x,2.2,13,13,-1.8,1
O=C(Nc1ccc(N2CCCC2)cc1)c1cccc(F)c1,1,x,x,-1,24,0.4,x,x,x,13
O=C(CSc1nnc(NCc2ccccc2)s1)c1ccco1,-4,x,x,4,39,u,x,x,x,-5
Cn1ncc2cc(NC(N)=S)ccc21,2,i,1.0,3,x,4.9,10,6,-1.8,2
O=c1[nH]c2ccccc2n1Cc1ccc(F)cc1,-1,i,-2.6,9,0,-4.5,-9,-16,-1.8,-3
CCN(CC)S(=O)(=O)c1ccc(C)c(NC(=O)COC(=O)CCC(=O)c2cccs2)c1,-1,i,0.2,x,x,x,-2,3,0.1,x

# Part of the list above, as labelled records:
COc1ccc(-c2nnc(SCC(=O)N3CCCC3)o2)cc1OC
  Beta apoptosis: 3
  FGF22 binding: x
  MLL AF4-AF9 inh: x
  T cruzi repl: -6
  ALR inh: -4
  RanGTP-Imp inh: -0.2
  Ecoli rRNA inh: x
  Ecoli rRNA inh OD600: x
  Ecoli rRNA inh RFP: x
  Calb FLC: 6
CC(C)C(=O)Nc1ccnc(-c2cccnc2)n1
  Beta apoptosis: 1
  FGF22 binding: i
  MLL AF4-AF9 inh: 3.6
  T cruzi repl: 0
  ALR inh: -35
  RanGTP-Imp inh: -2.8
  Ecoli rRNA inh: 8
  Ecoli rRNA inh OD600: -1
  Ecoli rRNA inh RFP: -11
  Calb FLC: 3

# Other compounds:
SMILES,Beta apoptosis,FGF22 binding,MLL AF4-AF9 inh,T cruzi repl,ALR inh,RanGTP-Imp inh,Ecoli rRNA inh,Ecoli rRNA inh OD600,Ecoli rRNA inh RFP,Calb FLC
COc1ccc(-c2nnc(SCC(=O)Nc3c(Cl)cc(Cl)cc3C(=O)O)o2)cc1,-6,i,-1.7,x,1,x,3,12,-0.7,x
COc1ccc(OC)c(/C=C2/Sc3ccccc3C2=O)c1,-1,i,2.7,13,24,-50,21,33,17,7
C=CCn1c(COc2ccccc2)nnc1SCC(=O)Nc1ccc(S(N)(=O)=O)cc1,-8,x,x,3,-11,0.8,x,x,x,u
O=C(NCCCN1CCN(c2ccccc2)CC1)C1CCCN(c2ncnc3c2nc2n3CCCCC2)C1 (stereo not drawn),-1,i,5.5,24,99*,0.4,-13,-16,-4.3,-7
CN(C)c1cccc(C(=O)N(C)C2CCCN(Cc3ccccc3F)C2)c1 (stereo not drawn),x,i,1.5,16,-1,1.3,5,3,2.2,-3
CC(C)C[C@H](NC(=O)c1nc[nH]c1C(=O)N1CCN(C(=O)OC(C)(C)C)CC1)C(=O)OC(C)(C)C,-6,i,-8.6,3,x,-4.2,6,6,-3.6,1
Cc1nc2c(sc(=S)n2Cc2ccco2)c(=O)n1CC(=O)Nc1cc(F)ccc1F,-1,i,0.2,11,-1,-2.6,-2,-2,1.0,12
N#CN(Cc1ccccc1)Cc1ccccc1,-7,i,3.9,3,x,-2.1,9,0,-1.6,-5
COc1ccc(/C=C(\NC(=O)c2ccc(OCC(C)C)cc2)C(=O)OCc2ccco2)cc1,-6,i,5.3,-17,x,6.3,x,x,x,13
O=C(O)CCc1ccc(-c2cccs2)n1NC(=O)c1cccs1,-11,x,0.0,0,99*,5.9,15,16,1.4,0
CCOC(=O)c1ccc(N2C(=O)c3n[nH]c(C)c3C2c2cccnc2)cc1 (stereo not drawn),x,x,x,7,2,0.3,x,x,x,-8
COc1cccc(C(=O)NCc2nnc(SCC(=O)Nc3nccs3)n2-c2cccc(C)c2)c1,2,x,x,1,-23,0.5,4,3,0.4,4
CSCCC(NS(=O)(=O)c1ccccc1F)C(=O)N1CCCCCC1 (stereo not drawn),-5,i,2.4,8,32,0.1,7,10,0.7,-2
O=C(CN1CCN(c2ccccn2)CC1)Nc1ccc(Cl)c(C(F)(F)F)c1,-8,x,x,14,x,0.2,x,x,x,6
COc1ccc2nc(SCC(=O)N3CCCCCC3)c(C#N)cc2c1,x,x,x,-10,-5,5.5,x,x,x,1
COc1ccc(NS(=O)(=O)NC(=O)c2cn(C)c3ccccc23)cc1,2,i,0.8,-1,-5,-3.6,-1,-2,-0.2,1
CC(C)CC(=O)Nc1ccccc1-c1nnn(CC(=O)N2CCc3ccccc3C2)n1,-10,x,x,23,-12,1.8,x,x,x,-13
CCC[C@@H](OS(N)(=O)=O)[C@@H](Cc1ccccc1)C(=O)OCC,-1,i,-41,-13,4,u,16,3,13,-2
CCN(CCNC(=O)c1ccc2nc(-c3ccccc3NC(C)=O)c(=O)[nH]c2c1)c1ccccc1,2,i,-1.5,-18,43,-21,-10,-4,-1.0,-1
O=C(NCCCn1ccnc1)c1cc2c(s1)CCCC2,0,i,1.9,0,24,1.9,3,1,-1.0,8
O=C(N/N=C/C(c1ccccc1)c1ccccc1)c1ccccc1F,-3,x,-0.8,3,1,-0.8,1,-3,3.9,1
